CtBP-E1A blk – inhibitors of CtBP/E1A interaction | AlphaScreen GST-E1A/His-CtBP binding, 1536-well; hits give low values; control for the full effect not named in the record | activity change, % (concentration not given with the values) | 340,000 tested, 0.49% active | AID 651724; in the data active means activity change below about -65%; inconclusive means about -30% to -65%; inactive means above about -30%; note: % is set by controls: 0 for no effect and ±100 for the full control effect
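In 5 uL wells, 23 nL compound meets equimolar GST-E1A and His-CtBP (5X stock 125 nM each) for 2 h, 37 °C. Beads (5X, 50 ug/mL) then 1 h, 37 °C, dark.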
D2 agonist – activates the human D2 dopamine receptor | 360,000 tested, 0.084% active | activation, % (concentration not given with the values) | P14416 | DiscoveRx PathHunter D2 beta-arrestin, luminescence, 90 min; 100% = 57 uM dopamine signal; in the data active = activation above about 40%; inconclusive = about 15% to 40%; inactive = below about 15%; note: compound concentration not given in the record; the text of the record calls up to 30% inactive
Target sequence (P14416 whole entry, looked up): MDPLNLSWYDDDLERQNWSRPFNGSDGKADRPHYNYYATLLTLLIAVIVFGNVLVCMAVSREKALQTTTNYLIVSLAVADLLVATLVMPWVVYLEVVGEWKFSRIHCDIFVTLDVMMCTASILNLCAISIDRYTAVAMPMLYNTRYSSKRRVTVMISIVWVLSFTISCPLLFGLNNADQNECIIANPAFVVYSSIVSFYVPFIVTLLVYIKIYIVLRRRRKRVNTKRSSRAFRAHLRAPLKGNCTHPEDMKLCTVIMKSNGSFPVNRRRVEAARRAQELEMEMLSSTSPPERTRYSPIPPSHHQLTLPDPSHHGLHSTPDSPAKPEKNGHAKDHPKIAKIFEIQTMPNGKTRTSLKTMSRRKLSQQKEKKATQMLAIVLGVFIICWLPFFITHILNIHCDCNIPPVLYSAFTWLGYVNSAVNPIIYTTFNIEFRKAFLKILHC
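Agonist mode: compounds alone added to overnight-plated D2 PathHunter cells for 90 min at 37 C, with 57 uM final dopamine (EC100) defining full response. Beta-arrestin recruitment detected by chemiluminescent reagent, read after 1 h at ambient temperature.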
D2 PAM – potentiates the human D2 dopamine receptor allosterically; potentiation, % (concentration not given with the values); 360,000 tested, 0.23% active; DiscoveRx D2 beta-arrestin cells, luminescence, 90 min; 100% = 57 uM dopamine signal; active = potentiation of 50% or more; inconclusive = 30% to 50%; inactive = 30% or less;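 note: compound concentration not given in the record; tested on top of an EC20 dose of dopamine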
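D2 cells co-treated with compound plus 50 nM dopamine (EC20) for 90 min at 37 deg C to detect potentiation. Beta-arrestin recruitment was read as enzyme-fragment luminescence after 1 h at ambient temperature. Full response was set by 57 uM dopamine.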
Six1-Eya2 blk – Six1/Eya2 interaction inhibition; AlphaScreen GST-Six1/His-Eya2 binding, biochemical; hits give low values; control for the full effect not named in the record; Q15475+O00167; AID 651725; activity change, % (concentration not given with the values); 360,000 tested, 0.56% active; in the data active = activity change below about -65%; inconclusive = about -30% to -65%; inactive = above about -30%; note: % is set by controls: 0 for no effect and ±100 for the full control effect
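Homogeneous AlphaScreen proximity assay pairing GST-Six1 with His-tagged Eya2 (added as 5X mix: 250 nM and 500 nM) in 50 mM Tris pH 8.0, 300 mM NaCl, 1 mM TCEP. Glutathione donor and nickel acceptor beads; 1 h, 37 °C, dark.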
gsp agonist – agonists of gsp mutant (McCune-Albright syndrome); gsp mutant cells, cAMP HTRF, 30 min; control for the full effect not named in the record; Potency, µM (series often up to 76.9 µM), for the others: at the top dose activation (cAMP increase), hits mostly activators; AID 624287; 340,000 tested, 0.13% active; active = well fitted activation curve with a large enough effect; inconclusive = small, poorly fitted or top-dose-only effect, or another doubt; inactive = no such curve, though single readings can be large or run the other way; cell line not stated here;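 note: phosphodiesterase inhibitor Ro 20-1724 added with compounds to block cAMP breakdown; potency is the fitted concentration of half-maximal effect; nearly all actives have a fitted effect of over 60% in size; about a fifth of the inactives were tested at one dose only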
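Cells stably selected in G418 were plated at 2000/well, grown 16-24 hr, then given compounds in DMSO with the PDE inhibitor […] (300 uM solution added) for 30 min at 37C; cAMP was read by HTRF.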
gsp antag – gsp mutant antagonism; Potency, µM (doses to about 76.9 µM), without a hit: at the highest dose activity change, negative = inhibition, most hits filed as inhibitors; gsp-mutant cells, cAMP HTRF, 30 min; control for the full effect not named in the record; 340,000 tested, 0.4% active; active = falling curve of any shape with a large fitted effect; inconclusive = falling curve, mostly with a smaller effect; inactive = flat or rising curve; cell line not stated here;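 note: intracellular cAMP measured with PDE inhibitor Ro 20-1724 present during compound exposure; potency is the fitted concentration of half-maximal effect; % is set by controls: 0 for no effect and ±100 for the full control effect; nearly all actives have a fitted effect of over 65% in size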
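HTRF cAMP read-out (cAMP-d2 plus anti-cAMP antibody-K in lysis buffer, 30 min RT). Before lysis, cells are exposed to compounds with […] for 30 min at 37C in DPBS containing Ca/Mg, BSA and Tween 20.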
The depositor's hits bear a star; ? = inconclusive; · = not tested or not shown; [ ] = dose if it differs, or a comment.

#	compound	CtBP-E1A blk	D2 agonist	D2 PAM	Six1-Eya2 blk	gsp agonist	gsp antag
1	O=c1c([N+](=O)[O-])c(NCCN2CCCCCC2)c2ccccc2n1-c1ccccc1	-11	2.1	-4	-5	-6%	-1%
2	Cc1ccc(N(CC(=O)N=Nc2c(O)[nH]c3ccccc23)S(C)(=O)=O)c(C)c1	-2	-2.5	-12	2	-19%[15.4 µM]	-3%
3	CCOc1ccc(/C(C)=N/NC(=O)c2nnn(-c3nonc3N)c2-c2cccs2)cc1	1	-3.4	-1	2	24%	4%
4	COc1ccccc1-c1nnc(SC/C(O)=C(\C#N)c2nc3ccccc3[nH]2)n1C1CCCCC1	-9	-1.8	-5	-6	26%	-14%
5	C[C@H](CO)N1C[C@H](C)[C@@H](CN(C)C(=O)Nc2ccccc2)Oc2c(NC(=O)c3ccncc3)cccc2C1=O	0	1.8	·	23	·	18%
6	CCNc1nc(Oc2ccc(C(=O)OCC)cc2)nc(SC)n1	4	-1.3	-9	6	-24%	-12%
7	COC(=O)c1sc2ccc(C)cc2c1C(=O)OC	-7	0.0	-5	6	1%[15.4 µM]	0%
8	Cc1cccc(NC(=O)CSc2nnc(Cn3nnc(-c4ccccc4)n3)n2-c2ccccc2)c1	-4	-2.1	-10	-10	-28%	-4%
9	COC(=O)c1ccc(/C=C/C(=O)c2cccc(OC)c2)cc1	-5	-0.7	-13	-14	8%[15.4 µM]	-2%
10	CC(C)(C)OC(=O)NCC(=O)NCC(=O)OCc1ccccc1	-1	-4.7	-38	-2	?	11%
11	COC(=O)c1c(-c2ccc(SC)cc2)sc2ccccc12	54	-0.8	13	49	7%	-16%
12	O=C(Cc1ccccc1)NCCSC1CCCCC1	·	-2.7	-2	3	4%	-11%
13	Cc1ccnc(NC(=O)CNC(=O)c2sc3ccccc3c2Cl)c1	-6	-6.2	-4	6	?	-8%
14	CC(CC(=O)N1CCc2ccccc21)n1cccn1 (configuration not stated)	·	-2.0	-7	5	1%	10%
15	Cc1ccc(NC(=S)NCCN(C2CCCCC2)C2CCCC2)cc1	·	-3.8	-19	-6	8%	2%

Next section:
#	compound	CtBP-E1A blk	D2 agonist	D2 PAM	Six1-Eya2 blk	gsp agonist	gsp antag
16	CCC(C)NC(=O)C1CCCN1S(=O)(=O)c1ccc(Cl)cc1 (configuration not stated)	9	-1.1	-4	1	-17%	1%
17	Cc1cccc(NS(=O)(=O)c2cccc(C(=O)N3CCCCCC3)c2)c1	4	0.9	-9	8	12%	-32%
18	COc1cc(C(=O)NCCCc2ccccc2)cc(OC)c1OC	2	-3.3	-9	1	?	10%
19	O=C(Nc1nnc(-c2ccc(F)cc2)o1)C1CCCN1S(=O)(=O)c1cccs1 (configuration not stated)	-23	-2.2	0	?	-7%[15.4 µM]	-12%
20	O=C(O)c1ccc(-c2ccco2)n1Cc1ccccc1	-1	0.8	16	-5	16%	-8%
21	Cc1cccc(N2CCN(C(=O)C3COc4ccccc4O3)CC2)c1C (configuration not stated)	·	-4.8	-9	1	-58%[inhibitor]	-26%
22	Cc1ccc(S(=O)(=O)c2nc(NCCCn3ccnc3)sc2Cl)cc1	-11	-1.1	-21	-19	-50%[inhibitor]	-2%
23	Cc1ccc(S(=O)(=O)C2(C(=O)N3CCCCCC3)CC2)cc1	-4	-0.9	-9	8	25%	-1%
24	Oc1ccc2ccccc2c1C=NCc1ccccc1	-2	5.5	-3	-2	-11%	-16%
25	COC(=O)CNC(=O)C12CC3(C)CC(C)(CC(C)(C3)C1)C2	7	-2.8	20	-1	12%	-5%
26	NC(=O)CS(=O)(=O)c1ccc(Cl)cc1	0	3.1	-4	8	-38%[inhibitor]	-2%
27	Clc1ncn(CCOc2ccccc2)c1Cl	7	-3.3	8	-2	-26%[15.4 µM]	10%
28	Cn1cccc1CC(=O)NNC(=S)Nc1ccccc1Cl	0	-6.9	-9	-2	-8%	4%
29	COc1cccc(C(=O)N2CCC2(C)C(=O)NC(C)C)c1 (configuration not stated)	24	-7.6	0	16	·	·
30	N#CCc1ccc(NC(=O)Nc2cccc3ccccc23)cc1	·	3.5	-11	0	13%	-6%

Remaining list, next part
#	compound	CtBP-E1A blk	D2 agonist	D2 PAM	Six1-Eya2 blk	gsp agonist	gsp antag
31	CC(C)(C)C(=O)N(Cc1nc2ccccc2c(=O)[nH]1)Cc1cccs1	1	-0.9	-15	3	-61%[inhibitor]	6%
32	CC(C)C(=O)Nc1ccc2c(c1)Cc1cc(NC(=O)C(C)C)ccc1-2	3	-5.3	-2	4	?	-7%
33	Cc1ccccc1Oc1nc2c(c(=O)n(C)c(=O)n2C)n1C	-2	-2.6	-7	10	-14%[15.4 µM]	2%
34	COCCN(CCOC)Cc1cc(=O)oc2ccc3ccccc3c12	1	-2.8	-11	-2	·	·
35	CCOc1ccc(C(=O)NCC2OCCc3ccccc32)cc1 (configuration not stated)	12	-1.5	-2	2	24%	2%
36	Cc1cccc(N2C(=O)CC(N(O)c3ccccc3)C2=O)c1 (configuration not stated)	-12	3.9	?	1	19%	-6%
37	C/C=C/CSc1nc2c(c(=O)[nH]c(=O)n2C)n1CCC	11	-3.0	-2	-8	3%	8%
38	CN(CCc1ccccn1)C(=O)c1ccc(OC2CCN(Cc3ccccn3)CC2)cc1	-2	-0.6	3	7	2%	-10%
39	CCOC(=O)N1CCN(Cc2c(F)cccc2F)CC1	5	-1.5	-17	0	12%	4%
40	CCOC(=O)[C@@H](NC(=O)CC[C@H]1O[C@@H](n2ccc(=O)[nH]c2=O)[C@H](O)[C@@H]1O)C(C)C	7	-3.5	1	3	·	·
41	COC(=O)c1ccccc1NS(=O)(=O)c1ccc(O)c(C(=O)O)c1	8	-1.4	-12	1	-18%	-8%
42	CCCCOc1ccc(N=Cc2ccc[nH]2)cc1	-6	1.4	-14	-27	0%[15.4 µM]	9%
43	COC(=O)c1cccc(NC(=O)Nc2ccc(Cl)cc2Cl)c1	3	-1.9	-6	7	4%[15.4 µM]	?
44	O=C(O)C(=O)/C(=C\c1ccccc1)c1ccc2ccccc2n1	0	-3.5	-9	-2	?	4%
45	Cc1ccc(O)c(NC2=C(Cl)C(=O)N(Cc3ccccc3)C2=O)c1	-10	0.9	-10	-15	-8%	-14%

5 records picked at random from the list so far:
#	compound	CtBP-E1A blk	D2 agonist	D2 PAM	Six1-Eya2 blk	gsp agonist	gsp antag
26	NC(=O)CS(=O)(=O)c1ccc(Cl)cc1	0	3.1	-4	8	-38%[inhibitor]	-2%
34	COCCN(CCOC)Cc1cc(=O)oc2ccc3ccccc3c12	1	-2.8	-11	-2	·	·
23	Cc1ccc(S(=O)(=O)C2(C(=O)N3CCCCCC3)CC2)cc1	-4	-0.9	-9	8	25%	-1%
13	Cc1ccnc(NC(=O)CNC(=O)c2sc3ccccc3c2Cl)c1	-6	-6.2	-4	6	?	-8%
37	C/C=C/CSc1nc2c(c(=O)[nH]c(=O)n2C)n1CCC	11	-3.0	-2	-8	3%	8%

(continued)
#	compound	CtBP-E1A blk	D2 agonist	D2 PAM	Six1-Eya2 blk	gsp agonist	gsp antag
46	C=C(CC)C(=O)c1ccc(OCC(=O)O)c(Cl)c1Cl	-12	-3.2	-10	-1	·	?
47	CCN(CC(=O)Nc1c(F)cccc1F)C(=O)CCCSc1nc2ccccc2[nH]1	6	0.1	6	-2	-60%[inhibitor]	·
48	CCOC(=O)CSc1nnc(CSc2nc3ccccc3s2)n1C	-5	1.2	2	1	-31%[inhibitor]	-5%
49	Cc1ccc(-c2cc(C(F)(F)F)n3nc(C(=O)N4CCN5CCCC5C4)cc3n2)cc1 (configuration not stated)	-18	-1.7	-14	12	29%	7%
50	Cc1ccc(-n2nnc3c(=O)n(Cc4ccccc4C)cnc32)cc1	3	-4.2	-5	7	-5%	4%
51	Cc1cc(Br)ccc1NC(=O)c1ccc(-n2cncn2)c([N+](=O)[O-])c1	5	7.6	13	-1	?	-5%
52	CN(C)C(CNC(=O)CCCc1c[nH]c2ccccc12)c1ccco1 (configuration not stated)	4	-1.4	-12	1	-3%	9%
53	COc1ccc(CNCc2ccccc2[N+](=O)[O-])cc1OC	·	0.2	-33	11	-18%	7%
54	Cn1c2ccccc2c2ncn(Cc3ccco3)c(=O)c21	-22	-0.9	-2	-15	22%	7%
55	COc1ccccc1/C=N/Nc1nccnc1Cl	10	-3.4	-20	-3	25%	0%
56	O=[N+]([O-])c1cccc(S(=O)(=O)N2CCC(c3nc(-c4ccncc4)no3)CC2)c1	9	0.0	-5	3	-57%[inhibitor]	4%
57	COc1ccc(C(CNS(=O)(=O)c2ccc(NC(C)=O)c(OC)c2)N2CCCC2)cc1 (configuration not stated)	2	-2.5	-35	1	-1%[15.4 µM]	10%
58	O=C(c1ccc2c(=O)n(C3CCCC3)c(=S)[nH]c2c1)N1CCc2ccccc21	11	-2.7	-9	-3	7%	-16%
59	COc1ccc(S(=O)(=O)NCc2cc(=O)n(C)c(=O)n2C)cc1C	5	6.6	6	0	36%	10%
60	O=C(Nc1cccc(C(=O)O)c1)/C(=C\c1ccco1)NC(=O)c1ccccc1	-6	-1.4	-5	1	17%	4%

Entries of single compounds as entered above. Screens in order: CtBP-E1A blk, D2 agonist, D2 PAM, Six1-Eya2 blk, gsp agonist, gsp antag
Shown for O=C(c1ccc2c(=O)n(C3CCCC3)c(=S)[nH]c2c1)N1CCc2ccccc21 → 11, -2.7, -9, -3, 7%, -16%
Shown for Cc1cc(Br)ccc1NC(=O)c1ccc(-n2cncn2)c([N+](=O)[O-])c1 → 5, 7.6, 13, -1, ?, -5%
Shown for COc1ccccc1/C=N/Nc1nccnc1Cl → 10, -3.4, -20, -3, 25%, 0%
Shown for COc1ccc(CNCc2ccccc2[N+](=O)[O-])cc1OC → ·, 0.2, -33, 11, -18%, 7%
Shown for O=C(Nc1cccc(C(=O)O)c1)/C(=C\c1ccco1)NC(=O)c1ccccc1 → -6, -1.4, -5, 1, 17%, 4%

Later entries:
#	compound	CtBP-E1A blk	D2 agonist	D2 PAM	Six1-Eya2 blk	gsp agonist	gsp antag
61	CC(=O)Nc1ccc(Nc2nnc(-c3ccc(C)c(S(N)(=O)=O)c3)c3ccccc23)cc1	?	-1.4	6	?	-29%[15.4 µM]	-1%
62	COC(=O)c1cc(NC2c3ccccc3C(=O)N2CCN2CCOCC2)cc(C(=O)OC)c1 (configuration not stated)	-4	-4.3	-2	-7	-3%	-21%
63	COc1ccc(C)cc1NC(=O)CSc1nc2ccccc2nc1N1CCCC1	12	-5.8	-5	12	-15%	-17%
64	COc1ccc(CN2CCN(C(=O)C3CCN(S(=O)(=O)c4cccs4)CC3)CC2)c(OC)c1OC	1	2.8	-11	-4	?	-12%

Bioassay records: PubChem BioAssay, National Center for Advancing Translational Sciences (NCATS)
